Compound activity: PubChem BioAssay, National Center for Advancing Translational Sciences (NCATS)
TRPML1 inh: human mucolipin-1 channel inhibition; Q9GZU1; TRPML1-inducible cells, Ca2+ dye fluorescence, FDSS; stronger effect = lower value; inhibition of EC80 agonist-evoked calcium signal; activity change, negative = inhibition, % (test concentration not listed); 390,000 tested, 0.02% active; AID 624415; in the data active means activity change below about -50%; inconclusive means about -30% to -50%; inactive means above about -30%;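 further: stimulus is agonist 54-4 at its EC80 concentration; on the % scale 0 is the no-effect control and ±100 the full control effect; compound concentration not given in the record; the text of the record puts the active cut at -80%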
Target sequence (Q9GZU1 whole entry, looked up): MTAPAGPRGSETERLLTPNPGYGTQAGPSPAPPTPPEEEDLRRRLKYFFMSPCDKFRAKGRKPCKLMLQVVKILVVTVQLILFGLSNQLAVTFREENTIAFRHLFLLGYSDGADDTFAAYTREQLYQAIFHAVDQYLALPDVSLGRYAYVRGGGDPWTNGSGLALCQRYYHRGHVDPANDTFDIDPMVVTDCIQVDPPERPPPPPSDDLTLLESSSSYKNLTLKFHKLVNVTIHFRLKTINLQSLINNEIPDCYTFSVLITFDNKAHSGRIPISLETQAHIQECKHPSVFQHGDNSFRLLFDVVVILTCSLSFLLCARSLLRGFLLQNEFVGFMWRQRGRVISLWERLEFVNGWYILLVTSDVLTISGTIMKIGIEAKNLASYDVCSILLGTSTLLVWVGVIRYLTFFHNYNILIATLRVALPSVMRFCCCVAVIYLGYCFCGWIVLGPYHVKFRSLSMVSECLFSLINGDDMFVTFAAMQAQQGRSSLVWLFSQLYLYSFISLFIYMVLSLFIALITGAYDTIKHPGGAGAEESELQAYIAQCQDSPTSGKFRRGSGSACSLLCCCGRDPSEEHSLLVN
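Calcium fluorescence in TRPML1-DL cells induced overnight with Tet: a 110 s read after compound pin addition, then a 110 s antagonist read after challenge with 54-4 at 4 uM final (EC80).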
ClpP mod: qHTS Assay for Activators of ClpP; AID 651965, 2013; ATP-dependent Clp protease proteolytic subunit (Bacillus subtilis (strain 168)), P80244; 340,000 tested, 1.9% active; Potency, µM (titrated, usually from 57.5 µM), for inactives: top-dose activity change, negative = active; purified B. subtilis ClpP, FRET peptide cleavage, 20 min; active = well fitted falling curve with a large enough effect; inconclusive = small, poorly fitted or top-dose-only effect; inactive = no such curve, though single readings can be large or run the other way; further: potency means the concentration at half of the fitted maximal effect; the source files actives as falling curves though it sought activators and does not explain the sign; nearly all actives have a fitted effect of over 65% in size; many hits overshoot -100%
Target sequence (P80244 whole entry, looked up): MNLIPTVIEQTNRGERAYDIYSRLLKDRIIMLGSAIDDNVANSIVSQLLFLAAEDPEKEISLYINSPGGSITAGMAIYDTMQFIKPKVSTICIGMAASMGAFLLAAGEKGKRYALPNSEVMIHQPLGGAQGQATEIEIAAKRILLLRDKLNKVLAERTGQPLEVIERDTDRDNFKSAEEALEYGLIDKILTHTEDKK
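Buffer: 100 mM Tris/HCl pH8, 100 mM KCl, 0.05% low protease BSA, 2.5% glycerol, 0.01% Tween-20. ClpP 10 microg/mL final; 20 min RT; delta FRET normalized to ADEP and DMSO controls.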
Active calls of the source: *; ? = inconclusive. The list is partial; rates above refer to the full screens.

nr | Structure | TRPML1 inh | ClpP mod
1 | CC1(C(=O)Nc2ccc3c(c2)OCCO3)CCN1C(=O)C1(c2ccccc2)CC1 (stereo not drawn) | 36 | -0.3%
2 | CCc1ccccc1NC(=O)c1cnc(N2CCCCC2)c2ccccc12 | 15 | 505%
3 | CCc1ccc2oc(C(=O)NCCc3ccc(OC)c(OC)c3)cc(=O)c2c1 | -3 | -1.8%
4 | O=C(Nc1ccc(F)c(Cl)c1)C1Cc2ccccc2CN1S(=O)(=O)c1ccc(F)cc1 (stereo not drawn) | -9 | -4.7%
5 | COc1cc(C2C(C(=O)Nc3ccccc3)=C(C)Nc3nc(SCC(=O)c4ccc(C)cc4)nn32)ccc1O (stereo not drawn) | 14 | 1.6%
6 | CCc1ccc2nc(N3CCN(C(=O)c4ccccc4)CC3)sc2c1 | -15 | -1.6%
7 | O=C(Cn1c(=O)oc2cc(S(=O)(=O)N3CCCCCC3)ccc21)NCc1ccccc1Cl | -11 | 2.1%
8 | CCOc1ccc2nc(N3CCCC(C(=O)Nc4c(C)cccc4C)C3)sc2c1 (stereo not drawn) | 7 | 1.1%
9 | Cc1oc2ncn(CC(C)C)c(=O)c2c1C(=O)NCCc1ccc(Cl)cc1 | 27 | 0.8%
10 | CCn1c(=O)c2cc(C(=O)NCCCN3CCN(C)CC3)sc2c2ccccc21 | 23 | 3.8%
11 | CCCOc1ccc(C(=O)Nc2cc3nn(-c4ccc(CC)cc4)nc3cc2C)cc1 | 3 | ?
12 | O=C1c2ccccc2C(=O)C1(c1ccccc1)N1CCN(c2cccc(Cl)c2)CC1 | -15 | 0.7%
13 | COc1ccc2sc(N(Cc3cccnc3)C(=O)C3CCCCC3)nc2c1 | 64 | 1.6%
14 | CCOC(=O)c1ccc(NC(=O)C(CC)Sc2nc3ccncc3[nH]2)cc1 (stereo not drawn) | 0 | -1.6%
15 | Cc1ncc(CO)c2c1Oc1nc(-c3ccc(F)cc3)nc(SCC(=O)N3CCCCC3)c1C2 | -23 | 1.2%
16 | COc1ccccc1CCNC(=O)Cc1c(C)c2cc3c(C)coc3cc2oc1=O | 12 | 4.7%
17 | COc1ccccc1CNC(=O)Cc1csc2nc(-c3ccccc3)cn12 | 15 | -5.6%
18 | O=C(NCc1cccc(Cl)c1)c1ccc(NC(=O)N2CC3CCCN3c3ccccc32)cc1 (stereo not drawn) | -4 | -11%
19 | COc1cc(OC)cc(C(=O)Nc2ccc3oc(-c4ccccc4C)nc3c2)c1 | -18 | ?
20 | COc1ccccc1N1CCN(C(=O)c2c(C)oc3ncn(CC(C)C)c(=O)c23)CC1 | -16 | 3.2%
21 | CCOC(=O)N1CCc2c(sc3c2c(=O)n(-c2ccc(Cl)cc2)c(=O)n3Cc2cccc(OC)c2)C1 | -10 | -3.2%
22 | CCOCCCNC(=O)C(c1ccc(C)cc1)N(Cc1cccs1)C(=O)c1ccc(NC(C)=O)cc1 (stereo not drawn) | 1 | -1.7%
23 | CCC(Sc1nc2cc(OC)c(OC)cc2c2nc(-c3ccccc3)nn12)C(=O)Nc1cccc(C)c1 (stereo not drawn) | -13 | 0.7%
24 | O=C(COc1ccc(F)cc1)OCc1cc(=O)n2nc(-c3cccs3)sc2n1 | 4 | ?
25 | CCOc1ccc(C(=O)NCC(c2ccco2)S(=O)(=O)c2ccc(C)cc2)cc1 (stereo not drawn) | -10 | -1.0%
26 | COc1ccccc1-n1cc(-c2ccc(C)cc2)nc1S(=O)(=O)CC(=O)Nc1ccccc1C(F)(F)F | ? | -0.8%
27 | COc1cc(Cl)c(C)cc1NC(=O)CSc1ncc(S(=O)(=O)c2ccc(C(C)(C)C)cc2)c(=O)[nH]1 | -6 | -8.0%
28 | COc1ccc(N2CC(NC(=O)c3ccc(Br)o3)CC2=O)cc1 (stereo not drawn) | 4 | 1.3%
29 | COc1ccc(-c2nc3n(n2)C(c2ccc(OC)cc2)C(C(=O)Nc2cccnc2)=C(C)N3)cc1 (stereo not drawn) | 19 | -11%
30 | Cc1ccc(CNC(=O)C2CCN(c3nc4ccc(C)cc4[nH]3)CC2)cc1 | -3 | 2.1%
31 | Cc1ccc2c(c1)C(c1ccc(F)cc1)N(C(=O)C(C)C)CC(=O)N2 (stereo not drawn) | -28 | -12%
32 | CCOc1cc(C2NC(=O)c3c(sc4c3CCN(C)C4)N2)ccc1OC(=O)c1ccccc1Cl (stereo not drawn) | -6 | -1.2%
33 | Cc1cccc(N2CCN(C(=O)c3ccc4c(c3)N(Cc3cccc(Cl)c3)C(=O)c3ccccc3S4(=O)=O)CC2)c1C | -16 | 2.0%
34 | COc1cccc(OCc2nc3ccccc3n2Cc2ccccc2C)c1 | 67 | -1.9%
35 | Cn1nc(C(=O)N2CCN(c3ccc(F)cc3)CC2)c2c1-c1ccccc1SC2 | -19 | -4.0%
36 | CCCS(=O)(=O)N1CC(=O)N(c2ccccc2F)C(C)(C(=O)NC2CCCCCC2)C1 (stereo not drawn) | -13 | -0.4%
37 | CCOC(=O)c1c(C)oc2nc(C)nc(NCC3CCN(Cc4ccc(C)cc4)CC3)c12 | 5 | -1.3%
38 | CCC(=O)N1CCc2cc(S(=O)(=O)CCC(=O)N3CCN(c4ccccc4Cl)CC3)ccc21 | -2 | 1.0%
39 | Cn1cc(CN(C(=O)Nc2ccccc2)C2CCCCC2)c2ccccc21 | -3 | -27%
40 | CCc1ccc(-n2nc(C)c3c(C(=O)Nc4cc(C)c(Cl)cc4OC)cc(C)nc32)cc1 | -7 | 2.6%
41 | COCCN1C(=O)N(c2cccc(OC)c2)C(=O)C1CC(=O)Nc1ccccc1 (stereo not drawn) | -7 | 0.7%
42 | Cc1ccc(NS(=O)(=O)c2ccc3[nH]c(=O)ccc3c2)cc1N(C)C | -7 | -0.9%
43 | CC(=O)Nc1ccc(S(=O)(=O)NC2(C(F)(F)F)C(=O)Nc3c2c(=O)[nH]c(=O)n3-c2cccc(Cl)c2)cc1 (stereo not drawn) | -3 | -8.7%
44 | CCc1nnc(SCC(=O)Nc2cccc(C(F)(F)F)c2)c2cc3oc(C)cc3n12 | -14 | -29%
45 | N#Cc1nc(-c2ccc(COc3ccc(Cl)cc3)o2)oc1N1CCCCC1 | 0 | 28µM*
46 | Cc1nnc(SCc2cc(=O)c3cc(F)ccc3[nH]2)n1C | -18 | -1.4%
47 | Cc1ccc(NC(=O)C2(C)Cc3ccccc3C(=O)O2)c(C)c1 (stereo not drawn) | -12 | 0.3%
48 | Cc1cccc(OCCn2c(SCC(=O)O)nc3ccccc32)c1 | -5 | -0.7%
49 | O=C1C(c2ccc(F)cc2)N(CCc2ccc(Cl)cc2)C(=O)CN1C1CCCCC1 (stereo not drawn) | -1 | 1.1%
50 | COc1cccc(C(=O)CC2(O)C(=O)Nc3ccc(Cl)cc32)c1 (stereo not drawn) | -26 | 6.5%

Reformatted with values under each structure: part of the list above
Results follow in this order: TRPML1 inh	ClpP mod
#36 CCCS(=O)(=O)N1CC(=O)N(c2ccccc2F)C(C)(C(=O)NC2CCCCCC2)C1 (stereo not drawn)
    -13	-0.4%
#46 Cc1nnc(SCc2cc(=O)c3cc(F)ccc3[nH]2)n1C
    -18	-1.4%
#48 Cc1cccc(OCCn2c(SCC(=O)O)nc3ccccc32)c1
    -5	-0.7%
#49 O=C1C(c2ccc(F)cc2)N(CCc2ccc(Cl)cc2)C(=O)CN1C1CCCCC1 (stereo not drawn)
    -1	1.1%
#44 CCc1nnc(SCC(=O)Nc2cccc(C(F)(F)F)c2)c2cc3oc(C)cc3n12
    -14	-29%

Other records
nr | Structure | TRPML1 inh | ClpP mod
51 | CN(C)S(=O)(=O)c1ccc2c(c1)N(CC(=O)Nc1cccc(C(F)(F)F)c1)C(=O)CS2 | 34 | -0.2%
52 | CCOc1ccc(-c2cn3c(n2)sc2cc(C(=O)NCCc4ccc(OC)cc4OC)ccc23)cc1 | -8 | ?
53 | CCC(=O)N1c2ccccc2CC1C(=O)NCCc1cc(OC)c(OC)c(OC)c1 (stereo not drawn) | -25 | 0.3%
54 | COc1cccc(CNC(=O)C2CCN(S(=O)(=O)c3c(C)noc3/C=C/c3cccs3)CC2)c1 | 15 | -11%
55 | O=C(NCCc1ccccc1)c1sc2ncccc2c1-n1cccc1 | 47 | -1.5%
56 | CCc1nn2c(=O)cc(COC(=O)CNC(=O)COc3ccc(C)cc3)nc2s1 | -7 | -2.0%
57 | CCN(CC)CCNC(=O)Cn1ncc2c3ccccc3n(Cc3ccc(Cl)cc3)c2c1=O | -12 | -7.9%
58 | COc1cccc(NC(=O)Cn2c(=O)oc3cc(S(=O)(=O)N4CCCCC4)ccc32)c1 | -1 | -1.8%
59 | CCOc1ccc2nc(NC(=O)c3cc(=O)c4ccc(C)cc4o3)sc2c1 | -10 | 1.6%
60 | Cc1ccccc1Nc1c(-c2ccc(N3CCOCC3)cc2)nc2cccc(C)n12 | -10 | 3.9%
61 | COc1ccc(-c2cn3nc(N4CCCC(C(=O)NCc5ccccc5Cl)C4)sc3n2)cc1 (stereo not drawn) | -5 | 1.7%
62 | COCCNC(=O)CSc1cn(CC(=O)N2CCCCCC2)c2ccccc12 | 1 | -2.0%
63 | COc1ccc(C(=O)Nc2ccc3nc(SCC(=O)N4CCOCC4)sc3c2)cc1 | ? | 258%
64 | Cc1cc2c(cc3c(SCc4ccc(Cl)cc4)nnc(C)n32)o1 | 13 | -8.9%
65 | Cn1c(=O)cc(SCC(=O)NCc2ccc(F)cc2)c2ccc(Cl)cc21 | -3 | -6.0%
66 | O=C(NC1CC(=O)N(c2cccc(F)c2)C1)c1ccc(S(=O)(=O)N2CCCC2)cc1 (stereo not drawn) | -26 | 0.6%
67 | CSCCC(c1nnnn1C1CCCC1)N1CCN(C/C=C/c2ccccc2)CC1 (stereo not drawn) | -2 | -0.6%
68 | COc1ccc(NC(=O)c2ccco2)cc1NC(=O)c1cccc(C)c1OC | 5 | -1.8%
69 | O=C1CCc2cc(S(=O)(=O)NC(C(=O)Nc3ccc(F)cc3)c3ccccc3)ccc2N1 (stereo not drawn) | 26 | 0.2%
70 | Cc1ccc(NC(=O)CCC(=O)N2Cc3ccccc3Oc3ncccc32)cc1Cl | -10 | -2.2%
71 | COc1ccc(N2CCN(C(CNC(=O)C(=O)NCCCN(C)C)c3cccnc3)CC2)cc1 (stereo not drawn) | 9 | -1.5%
72 | CCOC(=O)c1c(-c2ccccc2)oc2ccc(NS(=O)(=O)c3ccc(C)cc3)cc12 | 2 | 4.7%
73 | Cc1cccc2nc(Cn3c(=O)n(-c4ccc(Cl)cc4)c(=O)c4c5c(sc43)CCC5)cc(=O)n12 | -2 | 0.2%
74 | Cn1c(=O)c2c(-c3ccc(Br)cc3)n(CCc3ccccc3)cc2n(C)c1=O | 80 | 4.1%
75 | CC(=O)Nc1nonc1-c1nnc(SCc2ccc(F)cc2)n1C | -16 | 0.5%

The last 3 entries of the part above come first, to join the parts:
nr | Structure | TRPML1 inh | ClpP mod
73 | Cc1cccc2nc(Cn3c(=O)n(-c4ccc(Cl)cc4)c(=O)c4c5c(sc43)CCC5)cc(=O)n12 | -2 | 0.2%
74 | Cn1c(=O)c2c(-c3ccc(Br)cc3)n(CCc3ccccc3)cc2n(C)c1=O | 80 | 4.1%
75 | CC(=O)Nc1nonc1-c1nnc(SCc2ccc(F)cc2)n1C | -16 | 0.5%
76 | Cc1oc2c(c1C(=O)Nc1ccc(Cl)cc1F)C1=NCCN1C=N2 | 23 | 3.7%
77 | Cc1nc2ccc(S(=O)(=O)NC(C(=O)NCc3ccccc3Cl)C(C)C)cc2s1 (stereo not drawn) | 6 | -1.7%
78 | CC(=O)Nc1ccc(Nc2nc3c(S(=O)(=O)c4cc(C)ccc4C)nnn3c3ccsc23)cc1 | -8 | -0.9%
79 | Cc1cc2oc(C(=O)N(Cc3ccc(N(C)C)cc3)Cc3ccco3)c(C)c2cc1Cl | -19 | -16%
80 | COc1ccc(/C=C/c2nc(C#N)c(N3CCCCC3)o2)cc1OC | 3 | 4.2%
81 | Cc1cc(S(=O)(=O)Nc2cc3c(cc2NCc2ccccc2)n(C)c(=O)n3C)ccc1F | -25 | 4.4%
82 | CCN1CCN(c2ncc3c(n2)CCN(CC(C)C)C3)CC1 | 0 | -6.1%
83 | COc1ccc(C(=O)NCC(c2ccc3c(c2)OCO3)N2CCOCC2)cc1 (stereo not drawn) | -6 | -4.7%
84 | Cc1ccc(S(=O)(=O)c2nc(-c3ccccc3F)oc2NCc2ccccc2)cc1 | 13 | ?
85 | CCCOc1ccccc1C(=O)N1CCC(c2nc3ccccc3s2)CC1 | 3 | -1.9%
86 | COc1ccc(CNC(=O)C2Cc3cc(S(=O)(=O)N4CCCCCC4)ccc3N2C(C)=O)cc1 (stereo not drawn) | 18 | 0.5%
87 | CCOc1ccc(Nc2ncnc3c2c(-c2ccccc2)cn3-c2cccc(C)c2)cc1 | 31 | -29%
88 | CN(c1ccccc1)C(CNS(=O)(=O)c1ccccc1)c1ccccc1 (stereo not drawn) | -14 | 0.2%
89 | Cc1ccc(NC(=O)Cn2nc(Cc3ccncc3)c3ccccc3c2=O)c(Cl)c1 | -3 | 0.8%
90 | CC(C)(C)c1ccc(-c2nc(SCCCOc3ccccc3)n3[nH]c(=O)cc3n2)cc1 | 6 | -1.4%
